miR-21 FLuc: miR-21 reporter, rising signal. Potency, µM (highest dose often 38.3 µM), without a hit: at the top dose reporter change, positive = more light. HeLa miR-21 FLuc reporter, luciferase, 48 h. 340,000 tested, under 10 active; active = well fitted rising curve with a large enough effect; inconclusive = small, poorly fitted or top-dose-only effect; inactive = no such curve, though single readings can be large or run the other way;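 further: % of control where 0% means no effect; miR-21 action dims this reporter so a rising signal means less miR-21 action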
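Luminescence from a firefly luciferase reporter carrying a miR-21 binding site downstream, stably expressed under a CMV promoter in HeLa cells that make miR-21 endogenously, reports miRNA modulation after 48 h compound exposure up to approximately 40uM final.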
* marks the source's active call; other numbers are inactive results. This is a subset; the hit share may differ from the screen's.

Results for CC(=O)Nc1ccc(S(=O)(=O)NC2(C(F)(F)F)NC(=O)N(CCc3ccc(F)cc3)C2=O)cc1 (stereo not drawn) ?
miR-21 FLuc: -7.2%

How did CN1CCc2nc3sc(C(=O)Nc4cccc(C#N)c4)c(N)c3cc2C1 do in these assays?
miR-21 FLuc: -39.6%

How did CC1CCN(S(=O)(=O)c2ccc3[nH]ccc3c2)CC1 do in these assays?
miR-21 FLuc: 5.1%

How did CC(C)(C)c1ccc(C(=O)NNc2ncnc3c2cnn3-c2ccc(Cl)cc2)cc1 do in these assays?
miR-21 FLuc: -38.2%

Results for COCCNC(=O)CSc1nnc(NC(=O)Nc2ccc(C)cc2)s1 ?
miR-21 FLuc: -20.3%

Results for COc1ccc(-n2ccnc(NCCc3ccc(S(N)(=O)=O)cc3)c2=O)cc1Cl ?
miR-21 FLuc: 5.9%

What do the screens show for `Cc1ccccc1OCC(=O)Nc1nnc(SCc2cc(=O)n3cc(Cl)ccc3n2)s1`?
miR-21 FLuc: -3.1%

How did CCOc1ccc(/C=C/c2nc(C#N)c(Nc3ccc(OC)cc3)o2)cc1 do in these assays?
miR-21 FLuc: -1.5%

What do the screens show for `COc1ccc(NC(=O)Cn2c(=O)n(Cc3ccco3)c(=O)c3sc4ccccc4c32)cc1Cl`?
miR-21 FLuc: -0.3%

Results for CCN(CC)c1ccc(-c2nc(-c3ccccc3C)no2)cc1[N+](=O)[O-] ?
miR-21 FLuc: -10.8%

What do the screens show for `COC(=O)c1sccc1S(=O)(=O)N(CC(=O)NCc1ccc(F)cc1)c1ccccc1`?
miR-21 FLuc: 3.4%

Results for O=C(CSc1oc(-c2ccccc2)nc1S(=O)(=O)c1ccc(Cl)cc1)Nc1ccc(F)cc1 ?
miR-21 FLuc: -7.0%

Results for CCOc1cc(-c2ccc(OC(=O)c3ccccc3)c(OC)c2)cc(=O)c2c(C)oc(C)c12 ?
miR-21 FLuc: -14.1%

How did COc1ccc(-n2c3c(cc(-c4nc(-c5ccc(Cl)cc5)cs4)c2=O)C(=O)CC(C)(C)C3)cc1 do in these assays?
miR-21 FLuc: -16.2%

What do the screens show for `COc1ccccc1N1CCN(Cc2nc(-c3cc(OC)c(OC)c(OC)c3)no2)CC1`?
miR-21 FLuc: 18.0%

How did COc1ccc(Cl)c2sc(NC(=O)c3ccc(S(=O)(=O)N4CCCC4)cc3)nc12 do in these assays?
miR-21 FLuc: 1.9%

Results for COc1ccccc1NC(=O)CSC1=Nc2ccccc2C2=NC(CC(=O)NCc3cccs3)C(=O)N12 (stereo not drawn) ?
miR-21 FLuc: 16.3%

How did Cc1ccc(C)c(NC(=O)C2CCN(c3nn4c(=O)cc(C)nc4s3)CC2)c1 do in these assays?
miR-21 FLuc: -3.5%

How did Cc1oc(-c2ccccc2F)nc1CSCC(=O)NCc1ccccc1 do in these assays?
miR-21 FLuc: 1.8%

How did COc1ccc(NC(=O)CN2C(=O)C3(SCC(=O)N3c3ccccc3)c3ccccc32)cc1Cl (stereo not drawn) do in these assays?
miR-21 FLuc: 3.5%

What do the screens show for `Cc1oc(-c2ccc(C(=O)NCc3cccc(F)c3)cc2)nc1COc1ccccc1`?
miR-21 FLuc: 5.2%

What do the screens show for `COc1ccc(S(=O)(=O)N2CCC(c3nnnn3-c3ccccc3)CC2)cc1OC`?
miR-21 FLuc: 2.8%

What do the screens show for `Cc1ccc(-c2nc(CS(=O)(=O)CC(=O)N3CCN(c4cccc(C)c4C)CC3)c(C)o2)cc1`?
miR-21 FLuc: 0.7%

Results for COc1cccc(N2CCN(C(=O)c3ccc(C)c(NC(=O)c4nsc5ccccc45)c3)CC2)c1 ?
miR-21 FLuc: -9.8%

What do the screens show for `Cn1c(=O)c2nc(SCC(=O)Nc3cc(Cl)cc(Cl)c3)n(C)c2n(C)c1=O`?
miR-21 FLuc: 0.0%

How did Cc1ccccc1Nc1c(-c2ccc(Cl)s2)nc2c(C)cccn12 do in these assays?
miR-21 FLuc: -13.9%

Results for CCOC(=O)c1ccc2c(c1)N(Cc1cc(C)ccc1C)C(=O)c1ccccc1S2(=O)=O ?
miR-21 FLuc: 19.5%

Results for COc1cc(NC(=O)C2CCCN(S(=O)(=O)c3ccc4c(c3)CCCC(=O)N4)C2)cc(OC)c1 (stereo not drawn) ?
miR-21 FLuc: 2.7%

Results for COC(=O)c1ccc(C2c3c(-c4ccccc4O)n[nH]c3C(=O)N2Cc2ccncc2)cc1 (stereo not drawn) ?
miR-21 FLuc: 2.5%

What do the screens show for `CCc1ccccc1Nc1cc(C(=O)NC2CCC(C)CC2)c2ccccc2n1` (stereo not drawn)?
miR-21 FLuc: -31.4%

How did COC(=O)c1sccc1S(=O)(=O)N1CCN(c2ccc(C(C)=O)cc2)CC1 do in these assays?
miR-21 FLuc: 15.7%

Results for CC(C)c1ccc(CNc2nc(-c3ccco3)nn2S(=O)(=O)c2ccccc2)cc1 ?
miR-21 FLuc: -43.7%

Results for Cc1ccc(NC(=O)C(Cc2ccccc2)NS(=O)(=O)c2ccc3c(c2)CCC(=O)N3)cc1 (stereo not drawn) ?
miR-21 FLuc: 10.1%

Results for CN(C)CCNC(=O)C(=O)NCC(c1cccnc1)N1CCN(c2ccc(F)cc2)CC1 (stereo not drawn) ?
miR-21 FLuc: -1.5%

How did Cc1ccc(OCCSc2nc3ccccc3n2CC(=O)NC(C)C)cc1 do in these assays?
miR-21 FLuc: -0.5%

Results for Cc1cc(C(=O)Nc2ccc(-n3c(C)nc4ccccc4c3=O)cc2)ccc1[N+](=O)[O-] ?
miR-21 FLuc: -6.2%

Brought forward from above: five entries; new compounds follow.
Results for CC(C)c1ccc(CNc2nc(-c3ccco3)nn2S(=O)(=O)c2ccccc2)cc1 ?
miR-21 FLuc: -43.7%

Results for Cc1ccc(NC(=O)C(Cc2ccccc2)NS(=O)(=O)c2ccc3c(c2)CCC(=O)N3)cc1 (stereo not drawn) ?
miR-21 FLuc: 10.1%

Results for CN(C)CCNC(=O)C(=O)NCC(c1cccnc1)N1CCN(c2ccc(F)cc2)CC1 (stereo not drawn) ?
miR-21 FLuc: -1.5%

How did Cc1ccc(OCCSc2nc3ccccc3n2CC(=O)NC(C)C)cc1 do in these assays?
miR-21 FLuc: -0.5%

Results for Cc1cc(C(=O)Nc2ccc(-n3c(C)nc4ccccc4c3=O)cc2)ccc1[N+](=O)[O-] ?
miR-21 FLuc: -6.2%

Results for COc1cccc(C(=O)Nc2ccc(-c3nc4ccc(C)cc4s3)cc2)c1OC ?
miR-21 FLuc: -13.8%

How did CSc1ncc(C(=O)Nc2cc(C)cc(C)c2)c(-c2ccccc2)n1 do in these assays?
miR-21 FLuc: -10.2%

Results for COc1ccc(NC(=O)C2=C(C)Nc3nc(SCc4ccccc4)nn3C2c2cc(OC)ccc2OC)cc1 (stereo not drawn) ?
miR-21 FLuc: -19.4%

What do the screens show for `CCc1ccc(CNC(=O)c2ccc3c(c2)c(C)c(C)n3Cc2ccccc2)cc1`?
miR-21 FLuc: 4.0%

What do the screens show for `CCc1ccc(S(=O)(=O)c2nnn3c2nc(NCCc2ccccc2)c2sccc23)cc1`?
miR-21 FLuc: inconclusive

What do the screens show for `Cc1ccc(Cl)cc1NC(=O)Cn1c(=O)n(CCCS(=O)(=O)C2CCCCC2)c(=O)c2ccccc21`?
miR-21 FLuc: 4.5%

How did CCOC(=O)N1CCc2c(sc3c2c(=O)n(-c2ccc(CC)cc2)c(=O)n3Cc2cc(C)ccc2C)C1 do in these assays?
miR-21 FLuc: -0.1%

What do the screens show for `CC1CCCN(C(=O)Cn2c(=O)n(CC3CCC(C(=O)NC(C)C)CC3)c(=O)c3sccc32)C1` (stereo not drawn)?
miR-21 FLuc: -7.0%

How did COc1cc(NC(=O)N2CCC(CN3CCCC3)CC2)cc(OC)c1OC do in these assays?
miR-21 FLuc: 0.2%

How did CCOC(=O)N1CCN(Cc2nc3cc(NC(=O)c4ccccc4OC)ccc3n2C(C)C)CC1 do in these assays?
miR-21 FLuc: 27.6%

What do the screens show for `CC(CNC(=O)c1cc(-c2ccccc2)n[nH]1)c1ccccc1` (stereo not drawn)?
miR-21 FLuc: -12.7%

Results for Cc1cc2oc(C(=O)Nc3ccc(S(N)(=O)=O)cc3)cc(=O)c2cc1C ?
miR-21 FLuc: -7.4%

Results for COc1ccc(NC(=O)C2CCN(S(=O)(=O)c3ccc4c(c3)CCCC(=O)N4)CC2)cc1OC ?
miR-21 FLuc: -1.2%

How did COc1ccc(NC(=O)CCc2nc3c(C)nn(-c4ccc(C)cc4)c3n(C)c2=O)cc1 do in these assays?
miR-21 FLuc: -8.8%

How did CCOC(=O)c1nc(Nc2ccccc2OC)c2ccccc2n1 do in these assays?
miR-21 FLuc: 6.1%

What do the screens show for `CCCCc1nn2c(=O)cc(COC(=O)c3cccc(NC(=O)c4cccc(C)c4)c3)nc2s1`?
miR-21 FLuc: -42.0%

What do the screens show for `Cc1ccc(Cn2c(=O)n(CCc3ccc(Cl)cc3)c(=O)c3ccccc32)cc1`?
miR-21 FLuc: -7.1%

Results for CC1CCCCN1C(=O)c1ccc2c(c1)N(Cc1ccc(Cl)cc1)C(=O)c1ccccc1S2=O (stereo not drawn) ?
miR-21 FLuc: inconclusive

How did CCCc1cnc2c(c1SCc1cccc(C)c1)c(=O)n(C)c(=O)n2C do in these assays?
miR-21 FLuc: 1.5%

How did COc1ccc(-c2cc3c(=O)n(CC(=O)Nc4cc(F)ccc4F)ccn3n2)cc1OC do in these assays?
miR-21 FLuc: -3.0%

How did CC(C)CCNC(=O)C1CCC(Cn2c(=O)c3sccc3n(CC(=O)NC(C)C)c2=O)CC1 (stereo not drawn) do in these assays?
miR-21 FLuc: 1.2%

What do the screens show for `Cc1ccc(C)c(OCCSc2nc3ccccc3n2CC(=O)N2CCOCC2)c1`?
miR-21 FLuc: -8.4%

What do the screens show for `Cc1ccc(C(=O)Nc2nnc(SCc3cc(=O)n4ccc(C)cc4n3)s2)cc1`?
miR-21 FLuc: -1.1%

How did COc1cc(C2NC(=O)N(C)C3=C2C(=O)N(c2cccc(Cl)c2)C3)ccc1O (stereo not drawn) do in these assays?
miR-21 FLuc: -9.9%

Results for CC(C)COc1ccc(Nc2ncnc3ccc(Br)cc23)cc1 ?
miR-21 FLuc: 3.1%

Results for COc1cccc(NC(=O)Nc2ccc3snnc3c2)c1 ?
miR-21 FLuc: 13.0%

How did CCOC(=O)c1cccc(NC(=O)C2CCN(S(=O)(=O)c3ccc4c(c3)oc(=O)n4C)CC2)c1 do in these assays?
miR-21 FLuc: 6.7%

How did COc1ccc(Br)cc1CNC(=O)CCCn1c(=O)c2cccn2c2ccccc21 do in these assays?
miR-21 FLuc: 2.0%

Results for CC(c1ccccc1)n1cc2c(c1-c1ccccc1Br)c(=O)n(C)c(=O)n2C (stereo not drawn) ?
miR-21 FLuc: -0.5%

Results for CCOc1ccc(-c2nc(-c3ccccc3)c(-c3ccccc3)[nH]2)cc1OCC ?
miR-21 FLuc: 0.3%

How did O=C(NCCc1ccc(F)cc1)C(=O)NCC(c1ccco1)S(=O)(=O)c1ccccc1 (stereo not drawn) do in these assays?
miR-21 FLuc: 6.9%

How did Cc1nn(C)c2c1c(C(F)(F)F)cc(=O)n2Cc1cccc(Br)c1 do in these assays?
miR-21 FLuc: -4.0%

Results for CCOC(=O)c1noc2ncnc(N3CCN(c4cccc(Cl)c4)CC3)c12 ?
miR-21 FLuc: -4.5%

How did COc1cccc(C(=O)NC(=O)Nc2ccc(-c3cc(C(F)(F)F)nn3-c3ccccc3)cc2)c1 do in these assays?
miR-21 FLuc: 0.0%

What do the screens show for `COc1cccc(CNC(=O)Cn2ncc3c4ccccc4n(Cc4ccccc4)c3c2=O)c1`?
miR-21 FLuc: -1.6%

How did Cc1cccc(NC(=O)N2CCC(N3CCN(Cc4ccccc4)C(=O)C3=O)CC2)c1C do in these assays?
miR-21 FLuc: -1.2%

Looked up one by one from the list above:
Results for COc1cccc(NC(=O)Nc2ccc3snnc3c2)c1 ?
miR-21 FLuc: 13.0%

How did Cc1cccc(NC(=O)N2CCC(N3CCN(Cc4ccccc4)C(=O)C3=O)CC2)c1C do in these assays?
miR-21 FLuc: -1.2%

More records
How did CCc1ccc(C(=O)c2cn(CC(=O)Nc3ccc4c(c3)OCO4)c3ccc(F)cc3c2=O)cc1 do in these assays?
miR-21 FLuc: 20.3%

How did Cc1ccccc1N1CC(c2nc3ccccc3n2CCC2CCCCC2)CC1=O (stereo not drawn) do in these assays?
miR-21 FLuc: 7.5%

Results for O=C(NCCCc1nc2ccccc2n1Cc1ccccc1F)c1ccco1 ?
miR-21 FLuc: 7.5%

What do the screens show for `Cc1cccc(NC(=O)c2cnn(-c3ccccc3)c2-n2cccc2)c1C`?
miR-21 FLuc: -3.0%

What do the screens show for `CC(C)(C)C(=O)NC1CC(=O)N(c2ccc3c(c2)OCCO3)C1` (stereo not drawn)?
miR-21 FLuc: 0.7%

How did Cc1ccccc1-c1nc(CS(=O)(=O)CC(=O)Nc2c(C)cccc2C)c(C)o1 do in these assays?
miR-21 FLuc: 9.4%

What do the screens show for `CCOc1ccccc1CNC(=O)Cn1ncn2nc(-c3cccs3)cc2c1=O`?
miR-21 FLuc: -37.2%

Results for COc1cc(-c2nc3sccn3c2Nc2c(C)cccc2C)ccc1O ?
miR-21 FLuc: -16.2%

How did O=C(Nc1ccc(Br)cc1)C1CCN(c2ncccn2)CC1 do in these assays?
miR-21 FLuc: -3.1%

Results for COc1ccc(Cl)cc1NC(=O)c1cc(S(=O)(=O)N2CCc3ccccc32)cn1C ?
miR-21 FLuc: 11.9%

Results for CC(C)c1ccc(NC(=O)Cn2cc(S(=O)(=O)N3CCN(c4ccccc4F)CC3)c3ccccc3c2=O)cc1 ?
miR-21 FLuc: -18.9%

How did COc1ccc(C(=O)NCC(c2cccnc2)N2CCc3ccccc32)cc1 (stereo not drawn) do in these assays?
miR-21 FLuc: -2.6%

Results for COc1ccc(C)cc1N(C)C(=O)c1c2c(nc3ccccc13)C(=O)N(C1CCCCC1)C2 ?
miR-21 FLuc: inconclusive

How did CCOC(=O)c1ccc(OC(=O)c2cn(-c3ccc(C)cc3)c(=O)c3ccccc23)cc1 do in these assays?
miR-21 FLuc: 4.1%

Screening results: PubChem, National Center for Advancing Translational Sciences (NCATS)
